SARS PLP yeast: SARS-CoV PLP inhibition in yeast; S. cerevisiae expressing SARS-CoV PLpro, growth rescue; control for the full effect not named in the record; Potency, µM (series often up to 32.9 µM), inactives show at the highest dose activity, positive = growth rescue; hit rate 0.19% among 330,000; AID 485353; active means well fitted rising curve with a large enough effect; inconclusive means small, poorly fitted or top-dose-only effect; inactive means no such curve, though single readings can be large or run the other way; further: 0% is about no effect; nearly all actives have a fitted effect of over 55% in size; growth read by luminescence after 48 h
Cruzain Triton: blocks cruzain activity in presence of Triton detergent; P25779; hit rate 0.43% among 200,000; purified cruzain, Z-FR-AMC fluorescence, 0.01% Triton; Potency, µM, inactives show max response, negative = inhibition, hits mostly inhibitors; AID 1478;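 further: plate controls were neutral wells for no effect and buffer without enzyme for full effect; nearly all actives have a fitted effect of over 40% in size; top concentration of the series not given in the record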
Target sequence (P25779 123-467 limits assumed): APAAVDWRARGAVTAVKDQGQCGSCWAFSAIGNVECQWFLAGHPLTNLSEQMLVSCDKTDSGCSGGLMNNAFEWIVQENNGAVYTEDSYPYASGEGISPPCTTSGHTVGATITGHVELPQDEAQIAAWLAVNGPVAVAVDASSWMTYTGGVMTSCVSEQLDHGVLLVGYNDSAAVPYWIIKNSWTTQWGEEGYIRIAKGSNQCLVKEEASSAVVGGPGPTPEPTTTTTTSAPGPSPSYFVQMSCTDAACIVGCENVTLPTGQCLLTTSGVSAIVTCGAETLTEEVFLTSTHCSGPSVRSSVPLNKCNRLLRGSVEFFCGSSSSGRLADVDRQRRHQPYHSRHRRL
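Purified cruzain (1.5 nM final) was preincubated with compounds for 15 min at room temperature in 100 mM sodium acetate pH 5.5, 5 mM DTT, 0.01% Triton X-100. Reaction started with 2 uM Z-FR-AMC; AMC fluorescence change over 60 s gave activity.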
MARV entry inh: Marburg virus entry inhibition; Marburg virus pseudotyped entry inhibition, cell reporter; control for the full effect not named in the record; about a third of the inactives were read at about 46 µM; Potency, µM (doses to about 37.8 µM), without a hit: top-dose activity change, negative = inhibition, most hits filed as inhibitors; hit rate 1.8% among 300,000; active = well fitted inhibition curve with a large enough effect; inconclusive = small, poorly fitted or top-dose-only effect, or effect the other way; inactive = flat fitted curve, though single readings scatter; tested in HEK293 cells; about a fifth of its hits are not listed in these tables; further: on the % scale 0 is the no-effect control and ±100 the full control effect; luciferase read-out
NS1 inh: inhibitors of influenza NS1 protein function. S. cerevisiae slowed by influenza A NS1, growth recovery by OD600. Potency, µM (titrated, usually from 46.1 µM), for the others: at the highest dose activity, positive = more growth. hit rate 0.4% among 270,000; active means well fitted rising curve with a large enough effect; inconclusive means small, poorly fitted or top-dose-only effect; inactive means no such curve, though single readings can be large or run the other way; further: nearly all actives have a fitted effect of over 50% in size
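A cell-based growth assay was used: compounds that relieve NS1-induced slow growth of budding yeast raise OD600. Assay medium was yeast nitrogen base with ammonium sulphate and -URA supplement, pH 6.0, with 2% galactose.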
Cruzain inh noDet: cruzain (T. cruzi) inhibition without detergent | AID 1476 | Potency, µM, for the others: max response, negative = inhibition, most hits filed as inhibitors | purified cruzain, Z-FR-AMC fluorescence, no detergent | P25779 | hit rate 2.3% among 200,000;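 further: plate controls were enzyme without inhibitor for no effect and buffer without enzyme for full effect; nearly all actives have a fitted effect of over 40% in size; top concentration of the series not given in the record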
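Detergent-free condition (0.00005% Triton X-100) in acetate buffer pH 5.5 with DTT. 1.5 nM enzyme and compound were pre-mixed 15 min, then 2 uM Z-FR-AMC substrate added; reaction progress from fluorescence change between first and third reads (60 s).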
RE007 growth inh: less growth of the S. pombe RE007 Vpr strain. Potency, µM (titrated, usually from 92.2 µM), without a hit: at the highest dose activity change, negative = less growth. hit rate 0.21% among 360,000. S. pombe RE007 Vpr strain, BacTiter-Glo ATP luminescence, 24 h; control for the full effect not named in the record; active = well fitted falling curve with a large enough effect; inconclusive = small, poorly fitted or top-dose-only effect; inactive = no such curve, though single readings can be large or run the other way;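 further: on the % scale 0 is the no-effect control and ±100 the full control effect; nearly all actives have a fitted effect of over 50% in size; the assay follows cell death caused by Vpr and the record does not say whether a fall means rescue or toxicity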
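Fission yeast RE007 carrying one integrated HIV-1 vpr copy, seeded at OD 0.01 in PMG+AL medium with 23 nL pinned compound. Grown 24 h at 30 degrees; viability read by BacTiter-Glo luminescence after 5 min.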
2A StopGo: FMDV 2A StopGo reporter, luciferase signal; human cells with a luciferase reporter of 2A StopGo recoding; control for the full effect not named in the record; Potency, µM (titrated, usually from 57.9 µM), inactives show top-dose signal change, negative = less light; hit rate 1.2% among 410,000; AID 1159524; active = well fitted falling curve with a large enough effect; inconclusive = small, poorly fitted or top-dose-only effect; inactive = no such curve, though single readings can be large or run the other way; tested in HEK293T cells; further: on the % scale 0 is the no-effect control and ±100 the full control effect; nearly all actives have a fitted effect of over 45% in size; luciferase light after 4 h
LASV entry inh: inhibitors of Lassa virus binding or cell entry; hit rate 1.2% among 300,000; Lassa virus pseudotype entry inhibition, cell reporter; control for the full effect not named in the record; Potency, µM (series often up to 37.9 µM), without a hit: at the highest dose activity change, negative = inhibition, most hits filed as inhibitors; AID 540256; active means well fitted inhibition curve with a large enough effect; inconclusive means small, poorly fitted or top-dose-only effect, or effect the other way; inactive means flat fitted curve, though single readings scatter; tested in HEK293 cells; further: on the % scale 0 is the no-effect control and ±100 the full control effect; nearly all actives have a fitted effect of over 50% in size; luciferase read-out
An asterisk follows results filed as active; u = inconclusive; x = not tested or not shown; & = joins results of further samples; [ ] = dose if it differs, or a comment. Unless noted, the call rests on the fitted dose curve; in most records, active means well fitted curve in the direction sought with a large enough effect; inconclusive means small, poorly fitted or top-dose-only effect, or another doubt; inactive means no such curve, though single readings can be large; an effect the other way counts as inactive or inconclusive. Potency means the concentration at half of the fitted maximal effect.

SMILES	SARS PLP yeast	Cruzain Triton	MARV entry inh	NS1 inh	Cruzain inh noDet	RE007 growth inh	2A StopGo	LASV entry inh
CCN(C(=O)CN1CCOCC1)C1(C)C(=O)c2ccccc2C1=O	27%	7.5%	u	u	3%	-4%	13%	12%
O=C(O)c1cccc(S(=O)(=O)NCCC(c2ccccc2)c2ccccc2)c1	-1%	x	1%	3%	x	-12%	6%	17%
CCOP(=O)(OCC)c1nc(-c2ccccc2Cl)oc1N1CCOCC1	-1%	x	u	x	x	-3%	-2%	2%
COc1ccc(C(C)=O)cc1CN1C(=O)NC2(CCCCCCC2)C1=O	-6%	x	-1%[46.1 µM]	x	x	15%	-5%	2%
O=C(c1cc(COc2ccc3ncccc3c2)on1)N1CCC(O)CC1	-1%	x	u	-7%	x	5%	-27%	-26%
Cn1nc2c3ccccc3n(Cc3ccc(F)cc3)c2nc1=S	-3%	x	x	2%	x	3%	-28%	x
O=C(CCCc1c[nH]c2ccccc12)N1CCOCC1	5%	6.5%	3%[46.1 µM]	8%	-7%	-5%	44%[activator]	10%
Cc1ccc(C2OCC3(CO)COC(c4ccc(C)cc4)N23)cc1 (stereo not given)	5%	2.9%	u	u	u	1%	x	-23%
COC(=O)CC1=NN(c2nc3ccccc3s2)C(=O)/C1=C/N(C)C	2%	x	23%[46.1 µM]	x	x	-13%	u	16%[46.1 µM]
Cc1ccc(NC(=O)[C@@H](NC(=O)c2cccc(S(=O)(=O)N3CCOCC3)c2)C(C)C)cc1C	-6%	1.8%	u	-6%	u	3%	61%[activator]	-11%
COc1ccc2[nH]c(=O)c(-c3noc(-c4ccc(F)cc4)n3)cc2c1	-5%	0.9%	19%	17%	-20%	-15%[3.69 µM]	60%[activator]	-3%
CC(C)c1nnc(NC(=O)c2nc(S(=O)(=O)Cc3ccc(F)cc3)ncc2Cl)s1	0%	x	u	9%	x	0%	-21%	u
Cc1ccc(S(=O)(=O)N2C(=O)CCC2C(=O)NCc2ccco2)cc1 (stereo not given)	0%	2.1%	-2%	7%	-9%	1%	-24%	u
COc1ccc(Nc2cc(=O)n(C3CCCCC3)c(=O)[nH]2)c(OC)c1	-2%	1.0%	2%	12%	3%	9%	-13%	-10%
COC(CNC(=O)c1ccc(CS(=O)(=O)c2ccc(C)cc2)o1)OC	-2%	x	3%[46.1 µM]	2%	x	-13%	-8%	-10%[46.1 µM]
CSc1c(SCc2ccccc2)cnn(-c2ccccc2)c1=O	11%	-3.4%	28%	-5%	1%	7%	-17%	5.2µM*
Cc1ccc(NC(=O)NC(=O)CSc2nnc(-c3ccc(OC(F)F)cc3)n2N)c(C)c1	7%	-3.8%	29%	3%	5%	7%	46%[activator]	15%
COc1cc2cc(CNc3ccccc3)c(=O)n(CC(=O)Nc3cccc(Cl)c3C)c2cc1OC	x	-4.3%	x	x	9%	x	32%[activator]	14%[46.1 µM]
O=C(C/C=N\O)Nc1ccc(Oc2ccccc2)cc1	0%	x	-4%[46.1 µM]	x	x	-12%	-16%	0%[46.1 µM]
O=C(COC(=O)C1CCN(S(=O)(=O)c2ccccc2)CC1)NC(=O)c1ccc(OC(F)F)cc1	8%	1.0%	0%	16%	u	-7%	-8%	-12%
CCOc1c(Cl)cc(C2NC(=O)NC(C)=C2C(=O)NCc2ccccc2)cc1OC (stereo not given)	8%	0.0%	11%	4%	-5%	133%	-21%	32%[14.3 µM]
COc1ccccc1NC(=O)CSc1oc(-c2ccccc2)nc1S(=O)(=O)c1ccc(C)cc1	x	-4.6%	u	x	u	x	-25%	u
Cc1[nH]c2ccccc2c1C(=O)NS(=O)(=O)Nc1ccccc1	0%	x	18%[46.1 µM]	x	x	4%	3%	-9%
CN(CC(=O)NCc1ccccc1Cl)CC(=O)Nc1cccc(F)c1	-2%	x	6%[46.1 µM]	x	x	-16%	-19%	-12%[46.1 µM]
CC(NC(=O)CNC(=O)Cc1cccc2ccccc12)c1ccc(S(N)(=O)=O)cc1 (stereo not given)	5%	x	x	u	x	8%	-3%	x

New compounds follow
SMILES	SARS PLP yeast	Cruzain Triton	MARV entry inh	NS1 inh	Cruzain inh noDet	RE007 growth inh	2A StopGo	LASV entry inh
Clc1ccc(OCCSc2ncccn2)c2ccccc12	-38%	1.2%	13%	-4%	-1%	-6%[3.69 µM]	1%	22%
N=C1C(c2nc(-c3ccc(Cl)cc3)cs2)=C(O)CN1CCCN1CCOCC1	-11%	-13%	u	-34%	5%	1%	-10%	u
CCN(CC)CCOC(=O)C12CC3CC(CC(C3)C1)C2	-1%	3.3%	5%	-6%	0%	-5%	-23%	2%
CN(C)/C=C/C(=O)c1ccc(Oc2ncccn2)cc1	1%	x	13%[46.1 µM]	-3%	x	1%	26%	x
Cc1nc(SC(C)C(=O)NCC2CCCO2)c2cc(-c3ccccc3)sc2n1 (stereo not given)	-7%	x	0.63µM*	x	x	3%	16%	0.5µM*
O=C(O)COc1ccc(/C=C2/SC(=S)N(Cc3ccccc3)C2=O)cc1	2%	x	x	13%	x	6%	4%	x
COc1ccc(OC)c2c(C)cc(N3CCN(C(=O)c4ccc(C)cc4)CC3)nc12	0%	x	12%[46.1 µM]	-2%	x	2%	u	u
O=C(O)Cc1ccc(-n2cccc2)cc1	7%	x	1%[46.1 µM]	x	x	-8%	-8%	0%[46.1 µM]
CC1=N/C(=C/c2ccco2)C(=O)O1	-2%	x	17%[46.1 µM]	x	x	-2%	11%	-6%
Cc1ncsc1C(=O)Nc1cccc(C(F)(F)F)c1	0%	x	u	-1%	x	-17%	5%	7%[46.1 µM]
CN1C(=O)S/C(=C\c2ccc(-n3cncn3)cc2)C1=O	-1%	x	x	-5%	x	3%	47%[activator]	x
COc1ccccc1CNC(=O)c1cccc(NC(=O)c2ccccc2)c1	-2%	x	x	-3%	x	-17%	-27%	x
Cc1ccccc1C(=O)Nc1ccc(Cl)cn1	-2%	3.9%	u	-35%	0%	-6%	27%	u
Cc1ccc(-c2nnn(CCC(=O)Nc3ccc4c(c3)OCO4)n2)cc1	9%	-9.5%	1%	-4%	-4%	-27%	x	9%
COc1cccc(NC(=O)CNC(=O)c2ccc(C)o2)c1	-1%	x	-1%	19%	x	-7%	-3%	u
COc1ccc(-c2nnc(SCc3ccc(C(=O)O)cc3)n2C)cc1OC	-4%	x	x	10%	x	-2%	4%	x
CC(C)(C)[Si](OCC[C@@H]1C[C@@]1(C)[C@@H](NP(=O)(c1ccccc1)c1ccccc1)c1ccccc1)(c1ccccc1)c1ccccc1	14%	2.4%&-1.0%	1%	4%	-26%&5%	x	x	2%
CCn1c(SCC(=O)NCc2ccco2)nnc1-c1cccs1	2%	4.4%	7%	6%	-5%	-2%	-7%	u
COc1ccc(O)c(-c2cc(-c3ccccc3[N+](=O)[O-])[nH]n2)c1	-3%	-9.8%	-1%	-25%	1%	19%	40%[activator]	10%
Cn1c(=O)c2c(SCC(=O)N3CCCC3)nc(-c3ccccc3)nc2n(C)c1=O	-4%	x	0%	10%	x	0%	-15%	5%
O=C(C1CC(c2ccc(Cl)c(Cl)c2)=NO1)N1CCC2(CC1)OCCO2 (stereo not given)	7%	-8.7%	25%	u	25%	2%	x	-10%
Cn1c(=O)c2c(SCC(=O)NCc3ccco3)nc(-c3ccccc3Cl)nc2n(C)c1=O	u	3.2%	-23%&-23%	23%	u	-1%	-21%&-23%	-26%
COc1ccc(-c2nn(-c3ccccc3)cc2C(=O)N2c3ccc(C)cc3C3CN(C)CCC32)cc1 (stereo not given)	1%	x	u	x	x	-4%	-3%	11µM*
O=C(c1c[nH]c2ccccc12)C(Cl)c1ccccc1 (stereo not given)	-3%	x	x	-56%	x	2%	u	x
O=C(O)c1cccc(NC(=S)NC(=O)C(c2ccccc2)c2ccccc2)c1	6%	-13%	13%	-63%	-1%	23%	-19%	-4%

A different layout for 12 compounds above:
Order of results – SARS PLP yeast	Cruzain Triton	MARV entry inh	NS1 inh	Cruzain inh noDet	RE007 growth inh	2A StopGo	LASV entry inh
- Cc1ccc(-c2nnn(CCC(=O)Nc3ccc4c(c3)OCO4)n2)cc1
  9%	-9.5%	1%	-4%	-4%	-27%	x	9%
- COc1cccc(NC(=O)CNC(=O)c2ccc(C)o2)c1
  -1%	x	-1%	19%	x	-7%	-3%	u
- COc1ccc(-c2nnc(SCc3ccc(C(=O)O)cc3)n2C)cc1OC
  -4%	x	x	10%	x	-2%	4%	x
- CC(C)(C)[Si](OCC[C@@H]1C[C@@]1(C)[C@@H](NP(=O)(c1ccccc1)c1ccccc1)c1ccccc1)(c1ccccc1)c1ccccc1
  14%	2.4%&-1.0%	1%	4%	-26%&5%	x	x	2%
- CCn1c(SCC(=O)NCc2ccco2)nnc1-c1cccs1
  2%	4.4%	7%	6%	-5%	-2%	-7%	u
- COc1ccc(O)c(-c2cc(-c3ccccc3[N+](=O)[O-])[nH]n2)c1
  -3%	-9.8%	-1%	-25%	1%	19%	40%[activator]	10%
- Cn1c(=O)c2c(SCC(=O)N3CCCC3)nc(-c3ccccc3)nc2n(C)c1=O
  -4%	x	0%	10%	x	0%	-15%	5%
- O=C(C1CC(c2ccc(Cl)c(Cl)c2)=NO1)N1CCC2(CC1)OCCO2 (stereo not given)
  7%	-8.7%	25%	u	25%	2%	x	-10%
- Cn1c(=O)c2c(SCC(=O)NCc3ccco3)nc(-c3ccccc3Cl)nc2n(C)c1=O
  u	3.2%	-23%&-23%	23%	u	-1%	-21%&-23%	-26%
- COc1ccc(-c2nn(-c3ccccc3)cc2C(=O)N2c3ccc(C)cc3C3CN(C)CCC32)cc1 (stereo not given)
  1%	x	u	x	x	-4%	-3%	11µM*
- O=C(c1c[nH]c2ccccc12)C(Cl)c1ccccc1 (stereo not given)
  -3%	x	x	-56%	x	2%	u	x
- O=C(O)c1cccc(NC(=S)NC(=O)C(c2ccccc2)c2ccccc2)c1
  6%	-13%	13%	-63%	-1%	23%	-19%	-4%
